CapD inh: Bacillus anthracis CapD inhibitors, primary screen, biochemical, fluorescence intensity. CapD gamma-glutamyltranspeptidase (Bacillus anthracis Ames Ancestor). purified CapD enzyme, fluorescence intensity read-out; active compounds read low; some hits fall short of the stated cut. z-score (concentration not given with the values). 140,000 tested, 0.23% active;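 active = z-score under -4 in either of two replicates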;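 note: stock transfer was 100 nL into about 40 µL; score is relative to mean and spread of the plate; one replicate is shown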
AID504770: growth inhibition of E. coli YBA685, primary screen, V. cholerae RctB inhibitors; z-score (no concentration beside the values); AID 504770, 2011; 130,000 tested, 0.27% active; E. coli YBA685 rctB-dependent plasmid, OD600 growth, 3 h; active compounds read low;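 active = z-score under -2 on both plates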;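 note: wells of about 30 µL received 100 nL stock; score is relative to mean and SD of the test wells; the first replicate is given; strong numbers were not always called active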
* marks the source's active call; other numbers are inactive results; . = not tested or not shown.

Second line of a record – CapD inh, AID504770
CCn1c(=O)cc(SCC(=O)NCCc2ccc(C)cc2)c2ccccc21
  -0.01, .
Cc1c(C(=O)N2CCC(C)CC2)sc2ncnc(N(C)c3ccccc3)c12
  1.1, .
Cc1ccc(NC(=O)COC(=O)C2CCCN2C2=NS(=O)(=O)c3ccccc32)cc1C (stereo not drawn)
  ., 2.1
CCc1cccc(NC(=O)CCNS(=O)(=O)c2ccc3c(c2)oc(=O)n3C)c1
  -1.1, -0.65
COCCN=C1Sc2nc3c(C)cccc3cc2CN1Cc1ccco1
  ., -0.05
CC1CCC2(CC1)NC(=O)N(Cc1ccccc1)C2=O (stereo not drawn)
  ., 0.1
N#Cc1cc(-c2cccc(Cl)c2)cn(Cc2ccc(Cl)cc2Cl)c1=O
  3.2, .
Cc1ccc(CN2C(=O)C3(OCCCO3)c3ccccc32)cc1
  -1.2, 1.4
CC(C)(C)CC(=O)NCc1cn2ccsc2n1
  -0.12, 0.15
CSC(=S)NN=C1CCCC1
  ., -0.85
Cc1ccc(C(=O)c2c(N)sc3c2CCC3)cc1
  -1.2, -0.6
Cc1ccc(C(CC(=O)O)NC(=O)CN2C(=O)c3ccccc3C2=O)cc1 (stereo not drawn)
  ., 0.1
COc1ccc(-c2c(C#N)c(C(C)=O)[nH]c(=O)c2C#N)cc1
  0.71, .
O=C(Cc1ccc2c(c1)OCCO2)N/N=C/c1ccc(-c2ccc(F)cc2)o1
  ., 1.4
O=C(c1c[nH]c(=O)[nH]c1=O)N1CCc2ccccc2C1
  ., 0.05
CC1(C)CC(=O)C2=C(C1)NC1=C(C(=O)c3ccccc31)C2c1cccc(O)c1 (stereo not drawn)
  -0.3, .
CSc1ncc(Cl)c(C(=O)O)n1
  -1.4, .
Cc1cccnc1NC(=O)c1c(O)c2cc(F)cc3c2n(c1=O)C(C)CC3 (stereo not drawn)
  ., 1.4
O=C(NCCN1CCOCC1)c1c(O)c2ccccc2[nH]c1=O
  13, -0.25
O=C(CSc1nccn1-c1ccc(Cl)cc1)Nc1ccccc1F
  -1, 2.1
O=C(O)/C=C/c1ccc(-c2ccc(Br)cc2)o1
  -0.3, -1.2
Cc1ccc(CC2(O)CC(C)N(C)CC2C)cc1 (stereo not drawn)
  0.62, 1.1
CCCCOc1ccc(C(=O)CSc2nc3c([nH]2)c(=O)n(C)c(=O)n3C)cc1
  -0.13, .
Cc1nc(-c2cccc(NC(=O)c3cc4ccccc4oc3=O)c2)cs1
  0.73, -0.6
COC(=O)c1sccc1NC(=O)CSc1ccc(Br)cc1
  -0.51, .
COC(=O)C1CCCN1S(=O)(=O)c1ccc(C)cc1 (stereo not drawn)
  0.3, -0.15
CN(C)CCCN1C(=O)C(=O)/C(=C(/O)c2ccc(S(=O)(=O)N(C)C)cc2)C1c1ccccc1 (stereo not drawn)
  -0.71, -0.05
CCn1nc(NC(=O)c2cccs2)c2cc3ccccc3nc21
  -0.56, -0.2
COCc1c(C(=O)Nc2ccc(F)cc2)oc2ccccc12
  ., 0.8
Cc1ccc(Cn2cc3c(n2)-c2c(oc(C(=O)NCCCN4CCCCCC4)c2C)CC3)cc1
  -0.01, 0
CCOC(=O)/C=C\c1cn(-c2ccccc2)nc1-c1ccccc1
  5.5, -1.1
CSC(=Nc1ccccc1C(F)(F)F)N1CCCC1
  1.1, 0.05
CCOc1cc(/C=C2/SC(=S)N(C(C(=O)O)c3ccccc3)C2=O)ccc1O (stereo not drawn)
  -1.9, -0.25
Cc1ccc(NC2=NCC(C)(C)S2)cc1
  0.14, .
O=C(Cc1n[nH]c(=O)c2ccccc12)N1CCCc2ccccc21
  ., 0.9
NS(=O)(=O)c1ccc(NC(=O)CC(=O)Nc2ccc(S(N)(=O)=O)cc2)cc1
  ., -0.6
C=CC(=O)N1c2cc(C)c(C)cc2C(=C2SC(C(=O)OC)=C(C(=O)OC)S2)C(=S)C1(C)C
  49, .
Cc1noc(C)c1C(=O)Sc1cccc(C(F)(F)F)c1
  -0.64, 0.55
Cc1nc(SCc2cc(=O)n3c(C)cccc3n2)n(C2CCCC2)c1C
  ., 0
Cn1c(-c2ccc(NC(=O)c3ccccc3)cc2)n[nH]c1=S
  ., -0.55
COc1ccccc1NC(=S)Nc1ccc(C)c(NS(C)(=O)=O)c1
  0.18, .
CCOC(=O)c1c(CSc2nc3ccccc3s2)[nH]c2cc(Br)c(OC(C)=O)cc12
  0.61, .
CCCCNC(=O)C1(NC(=O)Nc2ccccc2)CCCCC1
  ., -0.4
O=C(c1n[nH]c(=O)c2ccccc12)N1CCC(n2c(=O)[nH]c3ccccc32)CC1
  ., -0.65
Cn1cccc1C(=S)N=P(C1CCCCC1)(N1CCOCC1)N1CCOCC1
  ., 0.25
Oc1ccc(Oc2ccc3c(C(F)(F)F)cc(C(F)(F)F)nc3n2)cc1
  -0.6, .
Cc1ccc(CSC(=N)N)cc1
  -0.56, .
Cc1nc(C(F)(F)F)ccc1C(=O)Oc1ccc(OC(F)(F)F)cc1
  0.97, -0.25
COc1ccc(CCNC(=O)c2nc(S(C)(=O)=O)ncc2Cl)cc1OC
  0.39, -0.55
COc1ccc(Nc2cc(C)nc(-c3ccccc3)n2)cc1
  -0.14, 0.75
COc1ccc(CNC2CCCC2)cc1
  ., -0.55
COc1cc2oc(=O)c3c(c2cc1Cl)CCC3
  2.5, -0.3
c1ccc(CCC2CCCCN2)cc1 (stereo not drawn)
  ., -0.8
NC(=O)C1CCN(CC(O)COc2ccc(F)cc2)CC1 (stereo not drawn)
  -0.7, -1.2
CC(C)c1nc2ccccc2n1CCCOc1ccccc1
  1.2, 2.2
Cc1cccc(NC(=O)c2cccnc2Oc2ccccc2)c1C(=O)O
  0.08, -0.1
O=c1[nH]c2ccccc2cc1-c1noc(-c2ccccc2)n1
  20, 0.9
NNC(=O)c1csc(-c2ccncc2)n1
  -0.67, -0.7
COc1ccccc1CN(C)C(C)C(=O)Nc1ccc(S(N)(=O)=O)cc1 (stereo not drawn)
  ., 1
CCOc1ccc2c(c1)C(=O)c1cc(OCC(=O)OC)ccc1-2
  -0.085, .

In the list so far, 4 have a thiophene ring, fused or not:
Second line of a record – CapD inh, AID504770
Cc1c(C(=O)N2CCC(C)CC2)sc2ncnc(N(C)c3ccccc3)c12
  1.1, .
Cc1ccc(C(=O)c2c(N)sc3c2CCC3)cc1
  -1.2, -0.6
COC(=O)c1sccc1NC(=O)CSc1ccc(Br)cc1
  -0.51, .
CCn1nc(NC(=O)c2cccs2)c2cc3ccccc3nc21
  -0.56, -0.2

(cont.)
Second line of a record – CapD inh, AID504770
CC(C)N=C(Nc1ccc(Cl)cc1)c1cccnc1
  -0.23, 1.8
Cc1c(C#N)c(NC(=O)CSC(=S)N2CCCC2)n(Cc2ccco2)c1C
  ., 0.2
O=C(CN1C(=O)c2cccc3cccc1c23)N(Cc1ccccc1)Cc1ccccc1
  27, 1.1
O=S(=O)(NCc1ccccc1)c1ccc(-n2cccn2)cc1
  0.07, -0.2
COC(=O)c1cc(S(=O)(=O)NCCCN2CCc3ccccc3C2)c[nH]1
  -1.7, 0.85
Cc1ccc(C(=O)Nc2ccc(-c3noc(-c4ccco4)n3)cc2)cc1[N+](=O)[O-]
  -0.37, .
COc1cc(CCNS(=O)(=O)c2c(C)c(C)cc(C)c2C)cc(OC)c1O
  -0.51, .
CCc1nc(NCCN2CCOCC2)c(C#N)c2c1CCCC2
  -0.65, 0.15
N#CCOc1ccc(Cl)c(Cl)c1
  0.39, -0.5
COCc1cc(C)nc2sc(-c3nc4cc([N+](=O)[O-])c([N+](=O)[O-])cc4[nH]3)c(N)c12
  -1.1, .
Cc1cc(N/C=C(\C#N)C(=O)c2cc(C)oc2C(F)(F)F)no1
  0.19, -0.75
Cc1ccc(SC(CC(=O)c2ccc(C(C)(C)C)cc2)C(=O)O)cc1 (stereo not drawn)
  0.46, -0.25
O=C(O)COc1ccc(NC(=O)c2ccccc2F)cc1
  -0.19, 1.1
CSc1nc(Sc2ccccc2)c(C#N)c(Sc2ccccc2)n1
  -1.1, 2.6
Oc1ccc(-c2ncc(-c3cnc4ccccc4n3)c(-c3ccc(C(F)(F)F)cc3)n2)cc1
  1, .
O=C(N/N=C/c1ccc(F)cc1)c1n[nH]c2c1CCC2
  0.26, -1
Cc1ccc(Cl)cc1NC1=NC(=S)N(CCN2CCOCC2)C12CCCCC2
  0.14, .
C=CCN1C(=O)C(CC(=O)NCC)SC1=Nc1ccccc1OC (stereo not drawn)
  ., -0.7
CCOC(=O)c1cn(CC)c2cc(F)c(F)cc2c1=O
  1.2, -0.85
CCCCCn1c(SCc2ccc(C)cc2)nc2cc(C(=O)N3CCC(C(N)=O)CC3)ccc2c1=O
  0.51, .
CN1CCC(N(C(=O)c2c(F)cccc2F)C2CCN(Cc3ccccc3)CC2)CC1
  -0.23, .
COC(=O)c1cnn2c1NCN(Cc1ccccc1)C2
  58, 0.1
CCc1ccc(NS(=O)(=O)c2ccc3c(c2)CCCN3C(C)=O)cc1
  -1.6, -0.85
C=CCOc1cccc(C2c3c(oc4ccccc4c3=O)C(=O)N2c2ccccn2)c1 (stereo not drawn)
  -1, 0.7
Cc1ccc(-c2n[nH]n3c2nc(=O)c2ccccc23)cc1
  0.18, 0.25
O=c1c2c(F)c(F)c(F)c(F)c2on2c3c(cc12)CCCC3
  ., 0.35
Cc1cccc(N2CCN(C(=O)c3ccc(CS(=O)(=O)Cc4cccc(Cl)c4)o3)CC2C)c1 (stereo not drawn)
  -0.13, -0.6
CCOC(=O)c1cc(C#N)c(C)nc1N1CCN(C(=O)CCC(=O)O)CC1
  -0.53, .
Cc1ccccc1CSCC(=O)Nc1c[nH]c(=O)[nH]c1=O
  ., -0.1
CNC(=O)/C(=C\c1ccco1)NC(=O)c1ccccc1
  -0.79, -0.85
COc1cc(/C=C2/N=C(c3ccc(C)cc3)OC2=O)cc(Br)c1OC(C)=O
  0.15, .
O=S(=O)(c1cccc(Br)c1)N1CCC(O)(c2cccc(C(F)(F)F)c2)CC1
  -0.1, .
COc1ccc(N/C=C2/Sc3ccccc3NC2=O)cc1
  0.24, 0.15
Cc1csc2nc(CSc3nc4ccc([N+](=O)[O-])cc4[nH]3)cn12
  -0.98, .
CCC(Sc1nc2ncccc2o1)C(=O)Nc1cc(OC)ccc1OC (stereo not drawn)
  -2, 0.55
C=CCNC(=O)c1c(N)n(-c2cccc(C(=O)O)c2)c2nc3ccccc3nc12
  ., -0.1
COc1ccc(C2=N/C(=C/c3ccccc3C(F)(F)F)C(=O)O2)cc1Br
  1.3, .
O=C(NCc1ccncc1)c1ccsc1
  0.79, .
Cn1nnnc1SCCNCC#Cc1ccccc1
  -1.5, -1.4
C=CCN(Cc1nc(-c2ccccc2)no1)C(=O)c1ccccc1
  0.2, -0.6
C1=C(c2ccccc2)N2CCCCN=C2S1
  -0.055, 2.1
COCCN1Cc2cccc(C(=O)NC3CCCCCC3)c2C1=O
  -0.28, -0.15
CCN(CC)Cc1c(C)[nH]c2ccccc2c1=O
  0.4, 0.7
O=C1OC(Nc2ccc3ncccc3c2)c2ccccc21 (stereo not drawn)
  ., -0.1
CC(C)=N/N=c1\sc2ccccc2n1C
  ., -0.35
CCN(CC)c1nc(NC(C)(C)C)nc(NC(C)(C)C)n1
  0.36, -0.8
COC(=O)/C=C1/NCC(O)CNC1=O (stereo not drawn)
  -0.6, 0.4
Clc1cc(N=Cc2cccnc2)ccc1N=Cc1cccnc1
  -0.075, 0.95
COc1ccc(NC(=O)c2cc3ccc(O)cc3oc2=Nc2ccc(C(=O)O)cc2)cc1
  0.11, 0
COc1ccc(NC(=O)CSCC(N)=O)cc1
  -0.49, -0.25
CC1CN(S(=O)(=O)c2ccc3c(c2)n(C)c(=O)c(=O)n3C)c2ccccc2S1 (stereo not drawn)
  -0.91, 0.3
CC1(C)CC(=O)c2cc(C(=O)NCCc3ccccc3)c(=O)n(-c3ccccc3)c2C1
  11, .
O=C(NCc1ccccc1)c1cc(S(=O)(=O)N2CCCCC2)ccc1N1CCOCC1
  ., 1.5
CC(=O)Nc1ccccc1C(=O)OCC(=O)Nc1ccc(S(N)(=O)=O)cc1
  5.3, -0.3
O=C1C(=O)N(CSc2nnc(-c3ccco3)o2)c2ccccc21
  -0.11, .
O=C(O)C1CCN(C(=O)CSc2nnc(-c3ccccc3)c(-c3ccccc3)n2)CC1
  ., -0.1
Cc1cc(C)n2nc(CC(=O)N3CCN(c4ccccc4)CC3)nc2n1
  ., 1.8
COc1cc(NC(=S)N2CCN(CCO)CC2)c(OC)cc1Cl
  0.035, -1.1
C=CCOc1ccccc1COC(=O)N1CCN(c2ccc(OC)cc2)C(C)C1 (stereo not drawn)
  -0.65, .
CCN(CC)c1nc(C#N)nc(OC)n1
  2.5, -0.55

New compounds follow:
Second line of a record – CapD inh, AID504770
CCn1c(=O)n(CC(=O)Nc2nc3c(C)cccc3s2)c(=O)c2ccccc21
  -0.72, .
CSc1nnc(SCc2nc3ccccc3[nH]2)s1
  -0.9, 1.9
Cc1onc(-c2ccccc2)c1C(=O)OCC(=O)N1CCCc2ccccc21
  ., -0.15
O=C(Cc1ccccc1)NCCc1c[nH]c2ccccc12
  -1.1, -1
Cc1cc(C(=O)OCc2cscn2)c2ccccc2n1
  ., -0.6
O=C(c1ccccc1)c1cccc([N+](=O)[O-])c1
  0.66, .
CCn1nnc(NC(=O)c2ccccc2)n1
  ., -0.75
OC(CNC1Cc2ccccc2C1)c1ccccc1 (stereo not drawn)
  0.77, 1.6

Assay outcomes: PubChem, ICCB-Longwood Screening Facility, Harvard Medical School
